Source: PubChem (Broad Institute)
FGF22 binding: binders of human FGF22 protein, primary screen, FGF22 synaptogenesis inhibitor project, biophysical, thermal shift, single point; Fibroblast growth factor 22 (Homo sapiens), Q9HCT0; recombinant FGF22 thermal shift, SYPRO orange fluorescence; percent of sucrose octasulfate shift, DMSO zero; calls only at 9.99 µM; hit rate 1.5% among 340,000; AID 651658, 2012;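 active means melting point raised past a set limit in the mean and every replicate; three in four hits are not shown here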
Target sequence (Q9HCT0 whole entry, looked up): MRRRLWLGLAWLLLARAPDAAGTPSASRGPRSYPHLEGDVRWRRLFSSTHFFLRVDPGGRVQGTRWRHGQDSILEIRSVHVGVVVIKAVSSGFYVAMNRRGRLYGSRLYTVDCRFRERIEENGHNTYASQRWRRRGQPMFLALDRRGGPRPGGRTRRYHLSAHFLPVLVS
MLL AF4-AF9 inh: inhibitors of AF4 peptide binding to AF9, primary screen, biochemical, AlphaScreen, biotin-AF4 peptide, FLAG-AF9, single point. Protein AF-9 (Homo sapiens), P42568. inhibition, % at 10 µM. hit rate 0.47% among 350,000. AID 651704, 2012;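 active means every replicate reaching a set inhibition limit, whatever the replicate mean, cut at about 25% in these data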;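 further: 0% = plate neutral control median and 100% = total signal loss; the record names both 10 and 1 µM as test concentration; the first replicate is given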
Target sequence (P42568 whole entry, looked up): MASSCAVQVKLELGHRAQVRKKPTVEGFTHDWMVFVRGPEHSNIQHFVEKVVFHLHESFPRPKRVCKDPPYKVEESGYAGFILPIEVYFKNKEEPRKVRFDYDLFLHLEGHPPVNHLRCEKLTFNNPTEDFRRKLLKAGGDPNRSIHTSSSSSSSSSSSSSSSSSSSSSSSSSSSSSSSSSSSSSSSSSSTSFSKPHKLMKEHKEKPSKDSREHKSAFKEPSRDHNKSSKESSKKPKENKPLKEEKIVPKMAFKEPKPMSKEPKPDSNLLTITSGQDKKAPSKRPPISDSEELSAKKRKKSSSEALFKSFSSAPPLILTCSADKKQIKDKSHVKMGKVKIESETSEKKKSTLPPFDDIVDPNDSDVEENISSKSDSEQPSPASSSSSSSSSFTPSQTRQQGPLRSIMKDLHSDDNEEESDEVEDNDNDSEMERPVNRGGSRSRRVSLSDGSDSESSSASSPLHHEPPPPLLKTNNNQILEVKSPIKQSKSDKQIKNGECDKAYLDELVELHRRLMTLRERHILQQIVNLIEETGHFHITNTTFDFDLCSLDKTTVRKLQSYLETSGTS
Ecoli rRNA inh: reduced GFP signal of wild-type E. coli, primary screen, bacterial rRNA inhibitor project, GFP/RFP fluorescence, OD600, single point; E. coli WT GFP vs humanized-ribosome RFP mutants, 24 h; hits give low values; DMSO median 0, no signal -100; hit rate 1.6% among 350,000; GFP signal change (wild-type ribosome), % (no concentration beside the values);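 active means significant combined selectivity score with lowered wild-type GFP, culture density cut under 30%, mutant RFP and density less affected; inactive means any of these conditions unmet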; further: one replicate is shown; some compounds called inactive have numbers as strong as hits
Ecoli rRNA inh OD600: second read-out of Ecoli rRNA inh, no call of its own (marks repeat the call); OD600 change, %; measured here: OD600 growth;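 optical density of the mix in the first replicate; 0 = DMSO median and -100 = no signal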
Ecoli rRNA inh RFP: second read-out of Ecoli rRNA inh, no call of its own (marks repeat the call); RFP signal change, %; measured here: RFP humanized mutant strains;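 first replicate; 0 = DMSO median and -100 = no signal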
The depositor's hits bear a star; i = inactive. Only part of the results is shown; the hit share may differ from the screen's.

#	SMILES	FGF22 binding	MLL AF4-AF9 inh	Ecoli rRNA inh	Ecoli rRNA inh OD600	Ecoli rRNA inh RFP
1	COc1ccc(-c2cn(CC[C@H]3CC[C@@H](NC(=O)Cc4ccccn4)[C@@H](CO)O3)nn2)cc1	i	2.4	1	5	-1.4
2	CO[C@@H]1CN(C)C(=O)c2ccc(NC(=O)NC(C)C)cc2OC[C@H](C)N(C(=O)C2CCC2)C[C@H]1C	i	-0.6	0	-2	-0.9
3	C[C@@H](NC(=O)C[C@@H]1C=C[C@@H](NC(=O)CN2CCOCC2)[C@@H](CO)O1)c1ccccc1	i	1.4	2	6	-0.1
4	Clc1cccc(CNc2ccn3nc(-c4ccc(OCCN5CCOCC5)cc4)cc3n2)c1	i	2.5	-61	-77	-20
5	CC1Cn2c(Cc3ccccc3)nnc2S1 (centres undefined)	i	1.2	4	-7	1.4
6	COc1ccc(NC(=O)Nc2ccc3c(c2)C(=O)N([C@H](C)CO)C[C@H](C)[C@H](CN(C)C(=O)C2CCCCC2)OCCCC[C@H](C)O3)cc1	i	-9.5	-2	9	-0.6
7	C[C@@H]1CN([C@@H](C)CO)C(=O)c2cc(NC(=O)Nc3ccc(C(F)(F)F)cc3)ccc2O[C@@H](C)CCCCO[C@H]1CN(C)C(=O)C1CCCCC1	i	-0.6	-1	3	-2.8
8	N#C[C@H]1N[C@H](CO)[C@@H]1c1ccc(C#CC2CCCC2)cc1	i	0.2	1	0	-0.2
9	CCOc1ccc(CCN2C(=O)C(=O)N([C@@H](Cc3ccccc3)CN3CCC[C@H]3CN3C(=O)C(=O)NC[C@@H]3Cc3ccc(O)cc3)C[C@@H]2CC(C)C)cc1	i	-8.0	-22	-21	5.8
10	CC(C)(C)c1ccc(C(=O)N2CCC2(C)C(=O)NCc2cccc3ccccc23)cc1 (centres undefined)	i	-2.9	0	-5	2.3
11	C[C@H](CO)N1C[C@H](C)[C@H](CN(C)S(=O)(=O)c2ccc(Cl)cc2)Oc2ccc(NS(=O)(=O)c3cn(C)cn3)cc2C1=O	i	-1.4	4	5	-1.1
12	CC(=O)OC[C@@H]1CN(Cc2ccccc2)C[C@H](n2cnc3c(NC4CCC4)ncnc32)O1	i	0.2	3	7	1.6
13	O=C(CCN1CCCCC1)NCC[C@H]1CC[C@H](NC(=O)C2CCOCC2)[C@@H](CO)O1	i	-5.4	2	3	-0.2
14	CO[C@@H]1CN(C)C(=O)c2cc(NS(=O)(=O)CC(F)(F)F)ccc2OC[C@H](C)N(C)C[C@H]1C	i	-0.4	1	-1	-0.4
15	CO[C@H]1CC[C@H]2CCOc3ccc(C#N)cc3C(=O)N(C)C[C@H](OC)[C@H](C)C(=O)N(C)C[C@@H]1O2	i	2.9	1	9	-2.4
16	CO[C@H]1CN(C)C(=O)c2ccc(NC(=O)C3CCCC3)cc2OC[C@@H](C)N(Cc2cocn2)C[C@H]1C	i	-0.3	3	2	0.0
17	COCCNC(=O)C1(C)CCCN(Cc2sc(C)nc2C)C1 (centres undefined)	i	-2.1	8	19	3.5
18	C[C@H](CO)N1C[C@H](C)[C@H](CN(C)C(=O)NC2CCCCC2)Oc2ccc(NC(=O)CCCCCC(=O)Nc3ccccc3N)cc2CC1=O	i	1.8	-2	-15	-0.4
19	Cc1noc(C)c1NC(=O)N(C)C[C@H]1Oc2cc(C#CCN(C)C)ccc2S(=O)(=O)N([C@H](C)CO)C[C@@H]1C	i	0.2	3	20	1.6
20	C[C@@H]1CN([C@H](C)CO)C(=O)c2cc(NC(=O)Nc3ccccc3)ccc2O[C@@H](C)CCCCO[C@@H]1CN(C)Cc1ccc(C(=O)O)cc1	i	-6.9	2	3	1.9
21	C[C@@H]1CN([C@@H](C)CO)C(=O)Cc2cc(N(C)C)ccc2O[C@H]1CN(C)Cc1ccccc1	i	14	-1	-3	0.0
22	COc1cccc(NC(=O)N(C)C[C@@H]2Oc3ncc(C#Cc4ccccc4)cc3C(=O)N([C@@H](C)CO)C[C@H]2C)c1	i	-0.8	-4	5	4.5
23	CCn1c(CN2CCC(C)CC2)nc2cc(S(=O)(=O)N3CCCCC3)ccc21	i	-3.6	-9	-21	7.3
24	COC(=O)C[C@H]1C[C@H]2c3cc(NC(=O)NC4CCCCC4)ccc3O[C@H]2[C@@H](CO)O1	i	-0.3	-3	11	-3.4
25	C[C@H]1CN([C@@H](C)CO)C(=O)c2cc(-c3cccc(C#N)c3)cnc2O[C@H]1CN(C)C(=O)C1CCCCC1	i	3.0	-2	7	-1.7
26	CN(C)CC(=O)Nc1ccc2c(c1)[C@@H]1C[C@H](CC(=O)NCc3ccncc3)O[C@@H](CO)[C@@H]1O2	i	-1.9	4	7	-0.9
27	Cc1ccc(F)c(S(=O)(=O)NC(=O)C2(C)CCN2C(=O)c2ccc(C3CCCCC3)cc2)c1 (centres undefined)	i	-0.7	-8	-4	2.9
28	CCC(=O)Nc1ccc2c(c1)OC[C@@H](C)N(Cc1ccccc1OC)C[C@H](C)[C@@H](OC)CN(C)C2=O	i	-1.8	-1	-2	-1.0
29	O=C(O)C1=C(C(=O)O)C2CCC1C2	i	-1.2	12	1	0.8
30	CCCNC(=O)C[C@@H]1CC[C@H]2[C@@H](COC[C@H](O)CN2C(=O)c2cccnc2)O1	i	-4.4	-1	1	13
31	Cn1cnc(CCNC(=O)[C@H]2[C@H](CO)[C@H]3Cn4c(cccc4=O)[C@H]3N2C(=O)Nc2ccccc2)c1	i	0.5	-3	-2	-2.0
32	COc1ccc2c3c(n(C)c2c1)[C@H](CO)N(Cc1ccccc1)CC31CCN(C(=O)c2ccccc2F)CC1	i	6.7	12	-10	0.2
33	C[C@H](O)C#Cc1cnc2c(c1)C(=O)N([C@@H](C)CO)C[C@H](C)[C@@H](CN(C)C(=O)c1ccccc1)O2	i	0.1	-3	2	-1.6
34	O=C(c1cc(C2CC2)nn1-c1ccccc1)N1CCN(S(=O)(=O)c2ccc(F)cc2)CC1	i	-0.8	0	16	0.2
35	COc1ccc(NC(=O)N[C@@H]2CC[C@@H](CCNS(=O)(=O)c3ccccc3F)O[C@H]2CO)cc1	i	4.5	-1	2	-1.8
36	COc1cccc(CC(=O)NCC2CCN(C(=O)C(=O)c3cccs3)CC2)c1	i	-4.3	5	5	-3.9
37	CN(C)c1ccc2c(c1)[C@@H]1C[C@H](CC(=O)NCc3ccccc3)O[C@@H](CO)[C@@H]1O2	i	0.9	-3	-4	1.3
38	CC(=O)N1[C@H](C(=O)NCc2ccccc2Cl)[C@@H](CO)[C@@H]2Cn3c(ccc(-c4cncnc4)c3=O)[C@@H]21	i	1.6	0	7	-1.2
39	COc1ccc(CN(C)C[C@H]2Oc3ccc(NC(=O)Cn4cnnn4)cc3C(=O)N([C@H](C)CO)C[C@H]2C)cc1	i	0.0	4	-2	0.7
40	COc1ccc(NC(=O)Nc2ccc3c(c2)C(=O)N([C@H](C)CO)C[C@H](C)[C@@H](CN(C)C(=O)Nc2ccccc2)OCCCC[C@H](C)O3)cc1	i	-7.4	1	0	-3.1
41	CCOC(=O)C1=CCC(c2cc3ccc(OC)cc3n2C(=O)OC(C)(C)C)NC1 (centres undefined)	i	2.6	0	1	-3.8
42	C[C@H]1CN([C@@H](C)CO)C(=O)Cc2cc(NC(=O)Cc3ccccc3)ccc2O[C@@H]1CN(C)CC1CC1	i	-2.2	3	15	-1.7
43	Cc1ccc(S(=O)(=O)Nc2ccc3c(c2)C(=O)N([C@@H](C)CO)C[C@H](C)[C@@H](CN(C)C(=O)Nc2ccc(C(F)(F)F)cc2)OCCCC[C@@H](C)O3)cc1	i	1.8	1	2	-0.6
44	O=[N+]([O-])c1ccc(CN2CC(N3CCN(CCO)CC3)CS2(=O)=O)cc1 (centres undefined)	i	-4.1	-1	9	-1.0
45	C[C@@H]1CN([C@@H](C)CO)C(=O)c2c(c3ccccc3n2C)-c2ccccc2CO[C@@H]1CN(C)S(=O)(=O)c1cccc(C#N)c1	i	4.9	3	-1	3.7
46	C[C@@H]1CN([C@@H](C)CO)C(=O)c2cc(NC(=O)Nc3cccc4ccccc34)ccc2O[C@@H]1CN(C)C(=O)Nc1ccc2c(c1)OCO2	i	-0.6	-4	3	-2.3
47	C[C@@H]1CN([C@@H](C)CO)C(=O)c2cccc(NS(=O)(=O)c3cccs3)c2O[C@@H]1CN(C)C(=O)Nc1ccc(C(F)(F)F)cc1	i	-1.3	-19	-18	1.2
48	COc1ccc(CN2C[C@@H](O)COC[C@@H]3O[C@@H](CC(=O)NCCN4CCCC4)CC[C@H]32)cc1	i	12	2	4	1.4
49	Cc1noc(C)c1S(=O)(=O)Nc1cccc2c1O[C@H](CN(C)C(=O)Nc1cccc3ccccc13)[C@H](C)CN([C@@H](C)CO)C2=O	i	1.0	4	-7	1.1
50	Cc1noc(C)c1NC(=O)Nc1ccc2c(c1)C(=O)N([C@@H](C)CO)C[C@@H](C)[C@H](CN(C)C(=O)NC1CCCCC1)O2	i	0.3	3	6	0.8
51	C[C@@H]1CN([C@@H](C)CO)C(=O)c2cc(NC(=O)Nc3ccc4c(c3)OCO4)ccc2O[C@@H]1CN(C)C(=O)Nc1ccc(C(F)(F)F)cc1	i	-1.1	-15	-22	-1.2
52	CCCCCCN1CCN(C2CN(Cc3cn(Cc4cccc(C(F)(F)F)c4)nn3)S(=O)(=O)C2)CC1 (centres undefined)	i	-1.4	-7	0	4.9
53	O=C(C[C@H]1CC[C@H]2[C@@H](COC[C@@H](O)CN2Cc2cc(F)cc(F)c2)O1)NCc1cccc(F)c1	i	-10	-3	-2	0.8
54	COCC(=O)N1CC2(C1)CN(S(C)(=O)=O)[C@@H](CO)c1[nH]c3cc(OC)ccc3c12	i	-0.9	4	20	-0.2
55	Cc1noc(C)c1NC(=O)Nc1cccc2c1O[C@H](CN(C)C(=O)Nc1cccc3ccccc13)[C@H](C)CN([C@H](C)CO)C2=O	i	1.9	0	-4	4.9
56	C/C=C/c1ccc([C@@H]2[C@@H](CN(C(=O)COC)C(C)C)N(C(C)=O)[C@H]2CO)cc1	i	-0.6	0	3	-1.6
57	CN(C)CC(=O)N[C@@H]1C=C[C@@H](CC(=O)NCc2ccc(Cl)cc2)O[C@H]1CO	i	-1.2	-2	20	0.9
58	O=C(N[C@H]1CC[C@H](CCNC(=O)C2CCC2)O[C@@H]1CO)c1ccccn1	i	-1.2	0	-2	-2.4
59	COc1ccc(NC(=O)C(c2ccc(OC)cc2)n2c(=O)c(-c3cc4ccccc4[nH]3)nc3ccccc32)cc1 (centres undefined)	i	-21	11	13	1.6
60	CC(C)(C)[S@](=O)N1Cc2cc(C(=O)NCc3ccc4c(c3)OCO4)nc(-c3cccc(-c4cccnc4)c3)c2[C@@H]1CCO	i	4.7	-16	-37	33

(further entries)
#	SMILES	FGF22 binding	MLL AF4-AF9 inh	Ecoli rRNA inh	Ecoli rRNA inh OD600	Ecoli rRNA inh RFP
61	C[C@H]1CN([C@@H](C)CO)C(=O)c2cc(-c3ccc(C#N)cc3)cnc2O[C@H]1CN(C)C(=O)CC1CC1	i	-2.4	5	0	-1.1
62	Cc1noc(C)c1NC(=O)Nc1ccc2c(c1)C(=O)N([C@@H](C)CO)C[C@@H](C)[C@H](CN(C)C(=O)Nc1ccc(C(F)(F)F)cc1)O2	i	-1.3	-47	-54	-12
63	CCN(CC)C(=O)c1cccc(-c2csc(C(C)(NC(C)=O)c3ccc(OC)cc3)n2)c1 (centres undefined)	i	8.4	2	-6	2.0
64	CC=Cc1ccc2n(c1=O)C[C@H]1[C@H](CO)[C@@H](C(=O)NCc3ccccn3)[C@@H]2N1C (mixture of isomers)	i	-0.9	7	9	1.2
65	Cc1ccc(S(=O)(=O)N2C[C@H]3C(=O)C[C@@H](c4ccccc4F)N(S(=O)(=O)c4ccc(C)cc4)[C@H]3C[C@H]2c2ccccc2)cc1	i	0.4	-8	10	-2.2

5 compounds drawn at random from the list so far:
#	SMILES	FGF22 binding	MLL AF4-AF9 inh	Ecoli rRNA inh	Ecoli rRNA inh OD600	Ecoli rRNA inh RFP
62	Cc1noc(C)c1NC(=O)Nc1ccc2c(c1)C(=O)N([C@@H](C)CO)C[C@@H](C)[C@H](CN(C)C(=O)Nc1ccc(C(F)(F)F)cc1)O2	i	-1.3	-47	-54	-12
64	CC=Cc1ccc2n(c1=O)C[C@H]1[C@H](CO)[C@@H](C(=O)NCc3ccccn3)[C@@H]2N1C (mixture of isomers)	i	-0.9	7	9	1.2
61	C[C@H]1CN([C@@H](C)CO)C(=O)c2cc(-c3ccc(C#N)cc3)cnc2O[C@H]1CN(C)C(=O)CC1CC1	i	-2.4	5	0	-1.1
63	CCN(CC)C(=O)c1cccc(-c2csc(C(C)(NC(C)=O)c3ccc(OC)cc3)n2)c1 (centres undefined)	i	8.4	2	-6	2.0
65	Cc1ccc(S(=O)(=O)N2C[C@H]3C(=O)C[C@@H](c4ccccc4F)N(S(=O)(=O)c4ccc(C)cc4)[C@H]3C[C@H]2c2ccccc2)cc1	i	0.4	-8	10	-2.2
